NPYLR7 ag = agonists of mosquito NPYLR7 receptor, primary screen, cell-based, Aedes aegypti, calcium fluorescence, mosquito biting behavior | Aedes aegypti neuropeptide Y-like receptor 7 (NPYLR7) | HEK293T NPYLR7/Galpha15, GCaMP6s calcium fluorescence | activation, % at 10 µM | 270,000 tested, 0.15% active | AID 1259423, 2018; in the data active = activation above about 40%;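 also: 0% = vehicle and 100% = reference agonist at the receptor; some compounds past the cut are filed as inactive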
NPYLR7 ag max-min = second read-out of NPYLR7 ag, no call of its own (marks repeat the call); activation, %; measured here: Max-Min RFU normalised activation; some inactives read as strong as hits;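 span of the calcium signal over five minutes; 0% = vehicle and 100% = native peptide agonist; compound fluorescence can raise it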
Numbers without * were called inactive; & = joins results of further samples. Only part of the results is shown; the hit share may differ from the screen's.

Under each structure: NPYLR7 ag max-min, NPYLR7 ag
> N#Cc1c(N)n(-c2ccccc2Cl)c2nc3ccccc3nc12
 : 5.0, 6.0
> CC(=O)N(C)Cc1cccc(NC(=O)N2CCN3CCCCC3C2)c1 (centres undefined)
 : 1.3, 2.1
> CS(=O)(=O)NCCSCC1CCCCC1
 : -8.9, -0.8
> CCSC1CCC(N(C)Cc2ccncc2)C1 (centres undefined)
 : -5.4, -2.0
> c1cc2n(c1)CCCN(Cc1ccncc1)C2c1ccoc1 (centres undefined)
 : 15.3, 18.3
> O=C(c1cn2cc(Cl)ccc2n1)N1CCCC(N2CCC(CO)CC2)C1 (centres undefined)
 : -4.4, 0.8
> CCN(CC)CCN1CCN(c2ccnc3c(-c4cc(C(F)(F)F)cc(C(F)(F)F)c4)cnn23)CC1
 : -10.4, -6.3
> COc1c(F)c(F)c(C(=O)c2c(O)cc(-c3c(F)c(F)c(OC)c(F)c3F)oc2=O)c(F)c1F
 : 40.9, 1.4
> Cc1ccc(Cn2nccc2NC(=O)Cc2ccc3c(c2)OCCO3)o1
 : 4.3, 7.4
> Cc1ccc(CN2CCn3nc(C(=O)NCCN(C)C)cc3C2)s1
 : 1.9, 10.0
> O=C(Cc1n[nH]c(=O)c2ccccc12)N1CCCC1c1cccs1 (centres undefined)
 : 3.9, 7.7
> CCCN(CC1CCCO1)C(=O)CCc1nnc(CCc2ccc(OC)cc2)o1 (centres undefined)
 : -0.5, 0.8
> O=C(CSc1ncnc2c1nnn2Cc1ccccc1F)N1CCc2ccccc21
 : 14.0, 12.3
> O=C(NC(C(=O)NC1CC1)C1CCN(C(=O)C2CC2)CC1)c1cccs1 (centres undefined)
 : -7.1, -8.2
> Cc1ccccc1N=c1oc2ccc(Cl)cc2cc1C(N)=O
 : -11.3, -7.5
> Cc1ccccc1CSc1nnc(C(C)NC(=O)COc2ccccc2)n1-c1cc(Cl)ccc1C (centres undefined)
 : 8.9, -5.5
> CN(C)C[C@H]1O[C@@H](CO)[C@@H](O)[C@H]1N1CCN(c2ncccn2)CC1
 : -14.3, -7.5
> O=C(c1ccc(C2CCNC2)cc1)N1CCC2(C=Cc3ccccc32)CC1 (centres undefined)
 : 0.9, 3.2
> C=CCn1c(=NC(=O)C2=COCCO2)sc2cc(OCC)ccc21
 : 2.3, 3.7
> CCCCn1c(=O)n(CC(=O)NC2CCCCC2C)c(=O)c2c1ncn2CCC(C)C (centres undefined)
 : 36.0, 0.2
> Cc1onc(-c2c(Cl)cccc2Cl)c1C(=O)N1CCC2(CC1)C(=O)NCN2c1ccccc1
 : -4.2, -0.3
> COc1ccc2cc(C(C)C(=O)O)ccc2c1 (centres undefined)
 : -8.0&-1.4, -2.8&-0.1
> COC(C(=O)Nc1ccnn1C1CCN(C(=O)c2cccs2)CC1)c1ccccc1 (centres undefined)
 : 6.6, 7.4
> CC(SCc1cc(=O)n(C)c(=O)n1C)c1ccccc1 (centres undefined)
 : -3.1, 1.4
> N#Cc1ccc(S(=O)(=O)NC2CC3CCC(C2)N3CCc2ccccc2)cc1 (centres undefined)
 : -0.4, -1.3
> O=C(OCc1nc2ccccc2o1)C1CCCN1C(=O)NC1CCCCC1 (centres undefined)
 : 13.4, -1.9
> CCOc1ccccc1-c1noc(COc2ccc(Cl)cc2C(C)=O)n1
 : -11.9, -12.7
> COCCN(Cc1ccsc1)Cc1ccc(C(O)(c2ccc(OC)cc2)c2ccc(OC)cc2)o1
 : 1.5, -2.9
> COc1ccccc1CCN1CCC(CN(C)C(=O)Cc2cccc(F)c2)CC1
 : 2.9, 9.4
> CC(=O)Oc1ccc(CSc2nnc(-c3cc(-c4ccccc4)nc4ccccc34)n2Cc2ccco2)cc1
 : -8.9, -6.6

Compound profiles, from the list above.
CCCCn1c(=O)n(CC(=O)NC2CCCCC2C)c(=O)c2c1ncn2CCC(C)C (centres undefined) is entered as NPYLR7 ag max-min = 36.0; NPYLR7 ag = 0.2
Cc1onc(-c2c(Cl)cccc2Cl)c1C(=O)N1CCC2(CC1)C(=O)NCN2c1ccccc1 is entered as NPYLR7 ag max-min = -4.2; NPYLR7 ag = -0.3

Going on with the list.
Under each structure: NPYLR7 ag max-min, NPYLR7 ag
> COc1ccc(-c2ccc(=O)n(CCCC(=O)Nc3ccccc3C(F)(F)F)n2)cc1
 : 5.6, 6.0
> C#CCN(C(=O)c1cc2ccccc2[nH]1)C1CCCCC1
 : 0.2, 0.8
> CCOC(=O)c1c(NC(=O)c2ccc(OC)c([N+](=O)[O-])c2)sc2c1CC(C)(C)SC2
 : -15.6, -9.6
> O=C(Nc1cc(-c2ccc(Br)s2)[nH]n1)c1cnccn1
 : 4.5, 6.1
> N#CC1(c2ccc(N)cc2)CCCC1
 : -20.0, -13.3
> CCC(C)OC(=O)C1=C(C)NC2=C(C(=O)CC(c3ccc(Cl)cc3)C2)C1c1ccccc1F (centres undefined)
 : 9.7, 10.6
> CCN1CCN(C(=O)c2cc(NC(C)=O)c3c(c2)nc(-c2ccccc2F)n3CC)CC1
 : -7.9, -5.7
> COc1ccc([C@@H](C)NC(=O)[C@@H]2C[C@H](NC(=O)N3CCOCC3)CN2C)cc1
 : 11.6, 27.7
> CC(C)(C)CC(NC(=O)c1ccc2nc[nH]c2c1)c1cccnc1 (centres undefined)
 : 2.2, 2.9
> CC(C)CN(C(=O)C1CCCCC1)C1CCS(=O)(=O)C1 (centres undefined)
 : 36.4, 1.0
> CC(C)(C)c1cc(Br)cc(Br)c1O
 : 3.3, 2.5
> O=C(OCC(=O)N(Cc1ccco1)C12CC3CC(CC(C3)C1)C2)c1cnccn1
 : 8.1, -2.7
> COc1ccc(Cl)cc1-n1nnc(-c2nc(-c3ccccc3C)no2)c1C
 : -3.3, 1.6
> C=CCOc1c(Br)cc(Br)c2cccnc12
 : 12.3, 3.9
> Cc1nccn1-c1cccc(NC(CCO)C(C)C)n1 (centres undefined)
 : 8.9, 12.5
> CCCC1=C(C(=O)OCC)C(c2ccccc2F)NC(=O)N1 (centres undefined)
 : 4.5, -0.5
> O=C(NCc1ccc(OC(F)(F)F)cc1)c1cncn1-c1cccc(-c2ccccc2C(F)(F)F)c1
 : 9.5, 23.1
> CCN(C)C(=O)c1coc(CN(Cc2ccc(C)cc2)Cc2cccc(C(F)(F)F)c2)n1
 : 15.3, 17.7
> COc1ccc(C(=O)OCc2cc(-c3cc4ccccc4o3)on2)cc1OC
 : -2.9, -0.6
> CNc1ccccc1C(=O)N1CCc2c([nH]c3ccccc23)C1=O
 : -12.8, -6.2
> OC(c1cc(F)cc(Cl)c1)c1ncc(-c2ccc(Cl)cc2)[nH]1 (centres undefined)
 : 1.5, 2.4
> Cc1cc(=O)n(CC(=O)Nc2cnc3n2CCCC3)c2ccccc12
 : 1.3, 3.6
> COCCC(=O)Nc1ccc2c(c1)CN(Cc1ccccc1OC1CCCC1)CC2
 : 4.7, 8.5
> NC(=O)c1ccc(NC(=O)CN2CCCSc3ccccc32)cc1
 : 3.7, 5.6
> CC1(C)O[C@@H]2C[C@@](OCc3cccc(Cl)c3)(C(=O)NCC3CC3)CC(OCc3ccc(F)cc3)[C@@H]2O1 (some centres undefined)
 : 18.3, 22.6
> N#CCN(CC#N)C(=O)Cc1cccs1
 : 6.5, 11.2
> O=C(O)[C@H]1C[C@@H](C(=O)N2CCCC2)CN(Cc2ccccn2)C1
 : 5.4, 6.6
> CCn1nnc2c(SCC(=O)N3CC(C)OC(C)C3)ncnc21 (centres undefined)
 : 25.6, 0.5
> CCCCS(=O)CC(CS(=O)CCCC)OC(=O)c1ccc(C)cc1 (centres undefined)
 : 34.1, -0.9
> Cc1ccc(-c2nc(C)c(C(C)C)c(N3CCN(C(=O)Nc4cccc(F)c4)CC3)n2)cc1
 : 23.4, 11.8
> COc1ccc(C(=O)N2CCN(C(c3ccccc3)c3ccc(Br)cc3)CC2)cc1F (centres undefined)
 : 8.8, -1.5
> COc1cccc(Cn2c(=O)c(C(=O)O)nn(-c3ccc(F)cc3)c2=O)c1
 : 3.3, -3.5
> CC(NC(=O)C12CC3CC(CC(C3)C1)C2)C(=O)NN=C1CCCC(=O)C1 (centres undefined)
 : -1.4, 0.0
> FC(F)Oc1ccc(NC(=S)N2CCc3ccccc32)cc1
 : -0.2, 1.6
> Cc1ccccc1-c1csc(=O)n1Cc1ccc(C(N)=O)cc1
 : 3.8, 6.6
> Cn1c(=O)n(Cc2ccccc2)c(=O)c2c1nc1oc(-c3ccc(F)cc3)cn12
 : -9.9, -6.9
> Cc1nnc(C2CCCN2C(=O)CCc2cccc(F)c2)o1 (centres undefined)
 : 2.4, 3.3
> CN(C)c1ccc(-c2ccc3c(c2)N(CCN2CCOCC2)C(=O)COC3)cc1
 : 0.8, 1.4
> Cc1ccc(C2(O)CCN(S(=O)(=O)c3ccc(C)c(F)c3)CC2)nc1
 : -12.3, -3.0
> CN(CCc1nc2ccccc2[nH]1)C(=O)C1CCC(=O)N(CC2CCCCC2)C1 (centres undefined)
 : -0.3, 2.7
> COc1cccc(-n2nnc3c(SCc4ccc([N+](=O)[O-])cc4)ncnc32)c1
 : 16.6, 5.3
> COCCN(CC(=O)Nc1nc(CC(=O)N2CCN(c3ccccc3OC)CC2)cs1)C(=O)c1ccc(F)cc1
 : 19.7, 14.5
> COc1ncc(C(=O)N2CCC(c3cc(C(C)C)n[nH]3)CC2)cn1
 : 2.9, 2.8
> CC(=O)N1C(=O)/C(=C\c2cccnc2)NC1=S
 : -12.1, -10.7
> CN(CCN1CCCC1)CC1(O)CCCN(Cc2ccc(F)c(F)c2)C1=O (centres undefined)
 : 1.1, 3.0

A few values from above:
NPYLR7 ag max-min, Cc1nnc(C2CCCN2C(=O)CCc2cccc(F)c2)o1 (centres undefined) = 2.4
NPYLR7 ag, CN(CCc1nc2ccccc2[nH]1)C(=O)C1CCC(=O)N(CC2CCCCC2)C1 (centres undefined) = 2.7

(listing goes on)
Under each structure: NPYLR7 ag max-min, NPYLR7 ag
> CCOC(=O)c1c(NC(=O)c2cnn3c(C(F)(F)F)cc(-c4ccccc4)nc23)sc2c1CCC2
 : -15.1, -9.1
> CCOc1ccc(-c2nc(Cn3nnc(C(=O)Nc4c(C)cccc4C)c3C)c(C)o2)cc1
 : -3.2, 2.6
> Cc1cc(C)cc(NC(=O)N2CCN(c3ccc4nnc(C5CC5)n4n3)CC2)c1
 : 3.0, -1.4
> CN(CCn1ccc2ccccc21)C(=O)[C@@H](O)c1ccccc1
 : 2.2, 3.2
> C=CCn1c(=S)[nH]c2sc3c(c2c1=O)CCC3
 : -14.6, -10.2
> COc1ccc(NS(=O)(=O)CCN2C(=O)c3ccccc3C2=O)cc1
 : 13.6, 17.0
> Cc1nc(N2CCOCC2)sc1/C=C(/C#N)c1ccccn1
 : 29.8, 49.0
> Cc1sc2nc(-c3cccs3)nc(Sc3nnc(CN4CCCC4)o3)c2c1C
 : 38.2, -0.8
> CCCC(O)CN(Cc1ccc2c(c1)OCO2)Cc1cc(C)ccc1C (centres undefined)
 : 32.0, 22.2
> CCOc1ccc(NC(=O)c2nnn(-c3ccccc3)c2N)cc1
 : 9.7, 10.3
> COc1ccc(-c2nnc3ccc(OCCNC(=O)Nc4ccccc4C)nn23)cc1OC
 : -5.8, -6.4
> CC(C)N(Cc1cc(Cl)ccc1OS(C)(=O)=O)C(=O)c1cccc(F)c1
 : 12.7, -2.0
> COc1ccccc1CCNC(=O)C(C1CCCC1)N1CCN(C(=O)c2ccc(OC)c(OC)c2)CC1 (centres undefined)
 : 2.6, -5.4
> C=CCN(CC(=O)Nc1ccc(N2CCOCC2)cc1)CC(=O)Nc1ccc(N2CCOCC2)cc1
 : -6.9, -2.8
> CCOC(=O)c1sc2nn[nH]c(=O)c2c1C
 : 10.6, 0.5
> Cc1ccc(NS(C)(=O)=O)c(NC(=O)c2cccc(C)n2)c1
 : 9.3, -1.6
> C=C(C)CN(C)C(=O)CC(c1cccc(Cl)c1)c1ccccc1O (centres undefined)
 : 5.1, 9.9
> CCc1nc2ccc(C(=O)NCCCN3CCCC3=O)cn2c1N(CC)CCN(C)C
 : -7.9, 5.7
> Cc1cc(C)nc(SCc2cc(=O)c(OC(=O)c3ccccc3Br)co2)n1
 : -9.2, -12.7
> O=C(c1ccccc1)c1ccc(CN2CCCCC2C(=O)O)s1 (centres undefined)
 : 2.0, 2.0
> COCCC(=O)N1CCC(n2c(Cc3ccccc3)nc3ccccc32)CC1
 : -7.6, -4.2
> CCCC(=O)N(CCCN1CCOCC1)c1nc2ccc(F)cc2s1
 : -8.2, -5.8
> O=C(Nc1ccc(Oc2cccnc2)cc1)C1CCN(C/C=C/c2ccccc2)CC1
 : 0.1&2.0, 7.6&12.5
> CC(=O)Oc1c(-c2ccc(NC(=O)c3ccc(Cl)cc3)cc2)c(-c2cccc(N(C)C)c2)nn1-c1ccc(F)cc1
 : 9.4, 4.9
> CCCCCCCC(=O)NCc1ccc(-c2ncc(-c3ccc(N4CCOCC4)cc3)[nH]2)cc1
 : 9.2, 1.2
> Cc1cc(C(=O)N2CCN(Cc3ccc(C(F)(F)F)cc3)CC2)n[nH]1
 : 2.6, 3.1
> CCOc1ccccc1CN1CCN(Cc2cccc3cnccc23)CC1CCO (centres undefined)
 : -3.1, 2.1
> O=C(c1cccc(S(=O)(=O)N2CCCC2)c1)N1CCCc2cccc(F)c21
 : -2.7, -2.8
> O[C@@H]1CN(C2CCN(c3cccc(Cl)c3)CC2)CC[C@H]1N1CCCCCC1
 : 4.1, 18.1
> COc1ccccc1-n1nnc(C(=O)Nc2nccs2)c1C
 : -8.0, -1.9
> CCOC(=O)c1ccoc1CN(Cc1ccc(C)o1)C1CC1
 : 4.2, 6.8
> Cc1cc(C(=O)N/N=C\c2ccc(N(C)C)cc2)c2ccccc2n1
 : 12.5, 4.4
> CCc1noc(C)c1C(=O)N(CC1CCN(Cc2ccccc2F)CC1)CC1CCCO1 (centres undefined)
 : 8.3, 18.7

From PubChem BioAssay
